# High-throughput results from PubChem.
# Insulin prom inh: TRM-6 insulin promoter activity inhibition; hit rate 0.9% among 130,000; TRM-6 cells (human fetal islet line), insulin promoter-eGFP reporter, imaging; reporter expression induced with tamoxifen; inhibition, % at 2 µM;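 active = inhibition above the mean plus 3 SD, with well images judged a real hit on visual review, cut at about 60% in these data, passing the limit was not always enough; inconclusive = inhibition over the cutoff but images rejected on review; inactive = inhibition not above the cutoff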
# PKD1 kinase inh: inhibitors of human PKD1 kinase; PKD1 kinase fluorescence polarization assay; inhibition, %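 (about 10 µM by stock and volumes)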; hit rate 0.056% among 200,000; AID 797;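 active = inhibition of 50% or more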;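 note: controls were vehicle for no effect and a reference inhibitor for full effect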
# GALR2 ag: agonists of human galanin receptor 2 (GALR2); GALR2-expressing cells, agonist activation read-out; activation, %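 (tested at 5 µM)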; AID 803; O43603; hit rate 0.48% among 140,000;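 active = above mean plus 3 SD of all compounds, about 5% in these data, not always enough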;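 note: 0% = vehicle buffer wells and 100% = reference agonist at full effect; tested in CHO reporter cells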
# Target sequence (O43603 whole entry, looked up): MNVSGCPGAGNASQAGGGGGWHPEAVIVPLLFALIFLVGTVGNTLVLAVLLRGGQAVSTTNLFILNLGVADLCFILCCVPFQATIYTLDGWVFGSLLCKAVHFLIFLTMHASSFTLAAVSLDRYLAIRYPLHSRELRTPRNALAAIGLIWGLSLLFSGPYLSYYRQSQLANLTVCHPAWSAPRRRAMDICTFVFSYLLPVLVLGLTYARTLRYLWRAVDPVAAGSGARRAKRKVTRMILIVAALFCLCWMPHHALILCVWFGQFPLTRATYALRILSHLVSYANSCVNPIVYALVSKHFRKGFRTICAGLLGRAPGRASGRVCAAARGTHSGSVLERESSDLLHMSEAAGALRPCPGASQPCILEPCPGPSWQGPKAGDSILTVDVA
# RGS16-Gao: modulates binding between human RGS16 and Galphao; O15492+P09471; bead-based flow cytometry RGS16-Galphao binding, fluorescence; actives lie on both sides; binding response (% of control), % at 10 µM; hit rate 0.38% among 220,000; AID 1441;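 active = below 25% or above 175%, edge rows of some plates excepted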;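 note: Galphao activated by GDP with aluminum fluoride before binding; 100% = wells without compound and 0% = beads without RGS; some results beyond the cut were filed as inactive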
# Target sequence (O15492 whole entry, looked up): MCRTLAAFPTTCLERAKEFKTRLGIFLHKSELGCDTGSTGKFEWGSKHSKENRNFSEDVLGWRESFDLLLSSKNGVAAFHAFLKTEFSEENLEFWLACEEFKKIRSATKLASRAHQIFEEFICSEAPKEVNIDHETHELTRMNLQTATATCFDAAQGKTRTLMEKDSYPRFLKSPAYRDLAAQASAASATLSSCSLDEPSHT
# Target sequence (P09471 whole entry, looked up): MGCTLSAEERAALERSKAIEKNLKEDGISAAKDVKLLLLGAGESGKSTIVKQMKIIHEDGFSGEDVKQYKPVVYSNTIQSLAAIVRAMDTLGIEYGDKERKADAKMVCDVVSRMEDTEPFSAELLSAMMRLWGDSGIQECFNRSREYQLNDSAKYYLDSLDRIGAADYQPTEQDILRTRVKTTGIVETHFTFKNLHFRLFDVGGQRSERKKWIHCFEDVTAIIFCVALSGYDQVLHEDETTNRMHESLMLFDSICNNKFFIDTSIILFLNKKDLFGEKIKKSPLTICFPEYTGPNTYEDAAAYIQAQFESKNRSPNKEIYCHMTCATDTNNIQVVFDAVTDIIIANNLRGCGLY
# HSV replic up: HSV replication enhancement; hit rate 0.005% among 220,000; maximum fold increase; HSV replication augmentation in cells, fold increase;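 active = peak rise of 1.5-fold or more in the series; inconclusive = self-fluorescent or not available for retest; tested in PC3 cells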;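 note: first round at 10 µM; read as green reporter fluorescence; hits show the peak of a series up to 25 µM; 1 = signal of infected wells without compound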
# Insulin prom inh cell count: further read-out of Insulin prom inh, marked with its call; normalized cell count, %; measured here: cell count, toxicity; reference of the scale not given here;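 cells exposed to compound for 48 h; stained nuclei by imaging scaled within each plate; lower means fewer cells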
# HSV replic up primary fold: also measured in HSV replic up; calls as there; fold increase; compound at 10 µM; measured here: primary screen fold increase 10 uM; tested in PC3 cells;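 GFP signal in the first replicate; 1 = infected wells without compound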
# The depositor's hits bear a star; i = inactive; u = inconclusive; x = not tested or not shown.
SMILES,Insulin prom inh,Insulin prom inh cell count,PKD1 kinase inh,GALR2 ag,RGS16-Gao,HSV replic up,HSV replic up primary fold
COC(=O)Nc1ncc(CN2CCC(c3ccccc3)CC2)s1,-14,82,-7,0.6,80,i,0.87
CCOc1cc(C(=O)Nc2ccccc2N2CCOCC2)ccc1OCC(=O)N1CCCCC1,x,x,0,x,104,i,0.99
N#Cc1c(N)sc(=S)c2c1CCCCC2,23,112,-8,-2.3,99,i,1.1
COc1ccc(S(=O)(=O)N2CCN=C2SCc2cccnc2)cc1,7,105,-4,x,104,i,0.78
CCC(C)(C(=O)NC1CCCC1)N(Cc1cccs1)C(=O)c1ccc2c(c1)OCO2 (centres undefined),-57,134,-6,-0.4,96,i,1.1
COc1ccc(CCNC(=O)COc2ccc(S(=O)(=O)N3CCCC3)cc2)cc1,x,x,1,x,97,i,0.93
Cc1nc2c3c(sc2c(=O)[nH]1)NC(=O)CC3c1ccccc1Cl (centres undefined),x,x,x,x,103,i,1.1
Cc1noc(C)c1C(=O)N1CCN(CCc2ccccc2)CC1,42,100,-8,-1.4,103,i,1.1
N#CCSc1nccc(/C=C/c2ccccc2)n1,x,x,-3,x,104,i,1.1
Cc1coc(C)c1C(=O)CC1(O)C(=O)Nc2cc(Cl)cc(Cl)c21 (centres undefined),x,x,15,-0.1,94,i,0.94
COc1ccc(NC(=O)O/N=C/c2c(C)nn(C(C)(C)C)c2C)cc1,x,x,x,x,100,i,1.1
O=C(Cc1ccccc1)NNC(=O)Nc1cccc(Cl)c1,x,x,-1,-3.7,104,i,1
CCN1C(=O)C2(SC(NC(C)=O)=NN2C(C)=O)c2cc(C)ccc21 (centres undefined),-14,97,-12,-1.8,98,i,0.97
CCOC(=O)c1c(C)oc2ccc(OCc3cc(C(=O)OC)oc3C)cc12,-11,78,-7,-1.8,102,i,0.98
COc1cc(NC(=O)c2cc(OC)c(OC)c(OC)c2)c(OC)cc1NC(=O)CN1CCCCC1,49,87,-10,-2.3,95,i,0.88
Cc1nc(C)c(C(=O)N/N=C/c2cc(Br)ccc2O)s1,x,x,x,x,101,i,0.69
COc1cccc(N(C(=O)CNC(=O)c2ccco2)C(C(=O)NC2CCCCC2)c2ccncc2)c1 (centres undefined),23,247,1,-2.2,96,i,0.78
CCOc1ccccc1NC(=O)Nc1cccc(NC(C)=O)c1,x,x,x,x,119,i,0.77
O=C(CSc1nnc2scc(-c3ccccc3)n12)Nc1nsc(-c2ccc(Cl)cc2)n1,-17,152,-6,-0.5,x,i,0.96
O=C(N/N=C/c1cn(-c2ccccc2)nc1-c1ccc2c(c1)OCCO2)c1ccncc1,43,86,0,x,88,i,0.95
C/C(CCc1ccccc1)=N\NC(=O)COc1ccccc1C,37,132,5,x,99,i,1
COc1cccc(N2CC(=O)N(NC(=O)CSc3nc(C)cc(C)c3C#N)CC2=O)c1,25,101,-7,-1.1,107,i,0.97
Cn1c(=O)n(C)c2cc(C(=O)O)ccc21,19,118,-3,-0.7,99,x,x
Cc1ccc(C)c(NC(=O)CCn2cnnn2)c1,x,x,-3,x,103,i,1
Cn1c2c(c(=O)n(C)c1=O)C(c1ccc(Br)cc1)Nc1ccccc1O2 (centres undefined),x,x,7,-1.2,102,i,0.6
# Following part.
SMILES,Insulin prom inh,Insulin prom inh cell count,PKD1 kinase inh,GALR2 ag,RGS16-Gao,HSV replic up,HSV replic up primary fold
COc1ccc(C2CCCN2C(=S)Nc2ccc(C)cc2C)cc1OC (centres undefined),x,x,2,x,93,i,0.98
CCOC(=O)c1cc2c(C)[nH]c(C)c2cc(C(=O)OCC)c1=O,-29,89,-2,x,99,i,1.2
Cc1nn(Cc2ccccc2Cl)c2sc(C(=O)NCc3ccc4c(c3)OCO4)cc12,-9,78,4,-2.7,98,i,0.9
COc1ccccc1-c1coc2c(CN3CCN(CCO)CC3)c(O)ccc2c1=O,47,96,2,-0.6,x,i,1.1
CCOC(=O)c1c(NC(=O)CN2CCN(C)CC2)sc(C(=O)Nc2ccccc2)c1C,-35,131,-10,x,100,i,0.77
COc1ccc(CCN=C2SCC(=O)N2Cc2ccccc2)cc1OC,-25,125,-2,x,102,i,0.88
C#CCn1c(=NC(=O)CN2C(=O)CCC2=O)sc2cc(S(N)(=O)=O)ccc21,-24,134,-4,-0.7,102,i,0.93
C/C=C/c1ccc(OCC(=O)OCc2csc(Nc3ccc(C)cc3)n2)c(OC)c1,48,130,-3,-2.0,92,i,1
CC(C)c1ccc2[nH]c(O)c(N=NC(=O)c3cccc(S(=O)(=O)Nc4ccc(Cl)cc4)c3)c2c1,-78,89,4,x,90,i,0.7
O=[N+]([O-])c1cnc2nc(-c3ccncc3)nn2c1O,x,x,3,x,101,i,1
COc1ccc(C(=O)N2CCC(C(=O)Nc3ccccc3OC)CC2)cc1,-77,110,-4,0.2,100,i,0.89
CCCN1CCC(=O)N([C@H](CSc2ccc(OC)cc2)Cc2ccccc2)CC1,x,x,x,x,92,i,0.79
Cc1ccc(CN2CCN(Cc3ccccn3)CC2CCO)cc1 (centres undefined),4,117,-8,x,101,i,0.97
Cc1cccc(C)c1NC(=O)COC(=O)c1ccccc1[N+](=O)[O-],x,x,4,x,100,i,0.95
COc1ccc(-c2cc(C(=O)Nc3cc(C)n(Cc4ccc(Cl)cc4)n3)no2)cc1OC,-70,55,-2,-1.1,103,i,0.99
CCCCCC(=O)Nc1nnn(CCC)n1,57,91,-9,-1.4,100,i,0.73
Cc1c(N=c2c(=O)c3ccccc3c2=O)c(=O)n(-c2ccccc2)n1C,x,x,x,x,105,i,1.2
Cc1ccc(NP(=O)(c2ccc(N(C)C)cc2NC(=O)c2cccs2)N2CCOCC2)cc1Cl (centres undefined),x,x,-1,-0.2,102,i,1.2
CCOC(=O)c1[nH]c(C)c(C(=O)NCC2CCCO2)c1C (centres undefined),50,99,3,-2.6,103,i,0.93
CCOC(=O)C1=C(N)N2C(=O)C(C)SC2=C(C(=O)OC)C1c1cccc(OC)c1 (centres undefined),x,x,-13,-0.3,101,i,1.4
COc1ccc(C(=O)C2CCCN(C(=O)c3cnsn3)C2)c(C)c1 (centres undefined),x,x,x,x,98,i,0.98
CCC(CC)n1[nH]c(=O)c2c(C)cc(C)nc21,-31,132,-9,-0.2,96,i,1.1
O=C1c2cccc3cccc(c23)C(=O)N1c1nncs1,x,x,-6,-1.0,108,i,0.94
Cc1ccc(OCC(=O)N2CCc3ccccc32)cc1,-18,109,-8,-3.2,41,i,1
COc1cc(/C=C2/SC(=NCc3ccccc3)N(Cc3ccccc3)C2=O)ccc1O,18,81,-3,-0.5,100,u,x
# (list continues)
SMILES,Insulin prom inh,Insulin prom inh cell count,PKD1 kinase inh,GALR2 ag,RGS16-Gao,HSV replic up,HSV replic up primary fold
CCCn1c(=O)c2ccccc2n2c(SCCOc3ccc(C)cc3)nnc12,9,130,-16,-0.7,94,i,1.1
CCC1CCCCN1S(=O)(=O)c1ccc(C(=O)Nc2nnc(-c3cccs3)o2)cc1 (centres undefined),10,93,-19,-2.6,99,x,x
O=C(Oc1ccc2ccc(O)cc2c1)C1CCCCC1,x,x,2,x,96,i,0.81
CCOc1ccc(OCc2cccc(C(=O)N3CCOCC3)c2)cc1,-21,96,-9,-0.8,116,x,x
CSc1cccc(CN2CCN(Cc3ccc(F)c(F)c3)C(CCO)C2)c1 (centres undefined),x,x,-1,x,93,i,0.91
CCc1c(C)nc(SCC(=O)Nc2ccc3c(c2)OCCO3)[nH]c1=O,7,93,3,x,66,i,1
Cc1ccnc(N2CCCC(C(=O)NCc3cccs3)C2)n1 (centres undefined),50,61,-6,-3.5,114,i,1.1
COc1ccc(-c2nnn(Cc3ccccc3F)n2)cc1,-305,86,-8,-0.3,103,i,0.96
O=C(COC(=O)c1ccc(F)c(S(=O)(=O)N2CCCCC2)c1)NCc1ccc(F)cc1,x,x,7,x,100,i,0.97
COC(=O)C1=C(C)N(c2ccc(S(N)(=O)=O)cc2)C(=O)C1,-493,37,-8,-0.1,101,i,1.1
Cc1cccc(N2CCN(C(=O)C3COc4ccccc4O3)CC2)c1C (centres undefined),5,120,-3,x,98,i,1.1
COC(=O)Nc1[nH]ncc1[N+](=O)[O-],x,x,-6,x,95,i,0.88
COc1cccc(NC(=O)NCc2ccc(F)cc2)c1,22,94,-1,x,104,i,1
Cn1c2c(c(=O)n(C)c1=O)C(c1ccccc1F)C(C#N)=C(N)O2 (centres undefined),x,x,-3,x,98,i,1
O=C(/C=C/c1ccccc1)c1cc(Br)ccc(=O)c1O,-16,119,-2,-2.8,94,u,x
Cc1cccc(N2CCN(Cc3nc(-c4ccc(F)cc4F)oc3C)CC2)n1,x,x,3,x,96,i,0.9
O=S(=O)(Cc1ccccc1Cl)N1CCCC1,x,x,0,x,98,i,0.93
CCN(CC)S(=O)(=O)c1ccc(C(=O)N2CCN(CCN3C(=O)c4cccc5cccc(c45)C3=O)CC2)cc1,56,76,1,x,99,i,0.93
COC(=O)C(NS(=O)(=O)c1ccc(F)cc1)c1ccccc1 (centres undefined),x,x,1,x,95,i,1.1
COc1ccc(S(=O)(=O)N2CCC(C(=O)NCCc3ccccc3)CC2)cc1OC,21,98,7,-2.2,102,i,1.2
Cc1sc2nc(SCC(=O)OC(C)C)n(C)c(=O)c2c1C,23,83,-5,-1.6,93,i,0.94
CCn1nnnc1SCC(=O)Nc1ccc2c(c1)OCCO2,6,93,0,-1.3,87,i,0.95
O=C(OCCN1C(=O)c2ccccc2C1=O)c1cnccn1,-36,113,-1,0.7,105,i,0.89
Cc1cc(C)cc(NC(=S)N2CCN(c3ncccn3)CC2)c1,x,x,-8,-0.3,288,i,1.1
O=C(CN1CCCc2ccccc21)Nc1ccc(F)cc1[N+](=O)[O-],-41,79,5,x,91,i,1

# Nothing new here: 5 of the compounds above.
SMILES,Insulin prom inh,Insulin prom inh cell count,PKD1 kinase inh,GALR2 ag,RGS16-Gao,HSV replic up,HSV replic up primary fold
Cc1sc2nc(SCC(=O)OC(C)C)n(C)c(=O)c2c1C,23,83,-5,-1.6,93,i,0.94
CCn1nnnc1SCC(=O)Nc1ccc2c(c1)OCCO2,6,93,0,-1.3,87,i,0.95
O=C(OCCN1C(=O)c2ccccc2C1=O)c1cnccn1,-36,113,-1,0.7,105,i,0.89
Cc1cc(C)cc(NC(=S)N2CCN(c3ncccn3)CC2)c1,x,x,-8,-0.3,288,i,1.1
O=C(CN1CCCc2ccccc21)Nc1ccc(F)cc1[N+](=O)[O-],-41,79,5,x,91,i,1

# Some of the entries so far, with bars between the fields:
Structure | Insulin prom inh | Insulin prom inh cell count | PKD1 kinase inh | GALR2 ag | RGS16-Gao | HSV replic up | HSV replic up primary fold
CCCn1c(=O)c2ccccc2n2c(SCCOc3ccc(C)cc3)nnc12 | 9 | 130 | -16 | -0.7 | 94 | i | 1.1
CCC1CCCCN1S(=O)(=O)c1ccc(C(=O)Nc2nnc(-c3cccs3)o2)cc1 (centres undefined) | 10 | 93 | -19 | -2.6 | 99 | x | x

# (more compounds)
SMILES,Insulin prom inh,Insulin prom inh cell count,PKD1 kinase inh,GALR2 ag,RGS16-Gao,HSV replic up,HSV replic up primary fold
COc1ccc(CC(=O)Nc2ccc(S(=O)(=O)Nc3ncccn3)cc2)cc1,-9,106,-1,-3.2,96,i,1
O=C1CCN(C(=O)c2cccs2)c2ccccc21,10,130,-3,-0.5,110,i,1.1
C=Cn1c(C(=O)O)cc(CC)c1-c1ccccc1,17,138,-4,-0.6,100,i,0.9
CCOC(=O)N1CCN(C(=O)c2ccc(CN(c3ccc(C)c(C)c3)S(C)(=O)=O)cc2)CC1,x,x,5,-3.0,97,i,1
CCOC(=O)c1c(NC(=O)Cn2ccsc2=N)sc(C)c1C,x,x,-8,x,96,i,1
Cc1cccc(NC(=O)CSc2nnc([C@@H]3CCCN3C(=O)OC(C)(C)C)o2)c1C,29,100,7,-2.5,101,i,0.87
Cc1cccc(-c2nnc(SCCC(=O)N3CCOCC3)o2)c1,17,103,-8,-0.1,108,i,0.85
CC(=O)N(C)c1nnc(-c2cnccn2)s1,33,115,-5,-0.7,108,x,x
CSc1nc2ccccc2n1CC(=O)N1CCCCC1,13,66,-2,0.4,96,i,1.1
O=C(COC(=O)Cn1cnc2ccccc2c1=O)NCC12CC3CC(CC(C3)C1)C2,0,136,7,-1.7,106,i,1
CCOC(=O)c1sc2nc(C)n(N)c(=O)c2c1C,40,120,0,x,99,i,0.97
C/C(=N\NC(=O)c1cc(C2CC2)nc2ccccc12)c1ccc(C)s1,-3,84,-1,-1.8,102,i,0.93
CC(C)c1ccccc1NC(=S)NCCCn1ccnc1,14,118,2,x,103,i,1.1
Nc1ccc(C(=O)OCC(=O)NC2CC2)cc1[N+](=O)[O-],-27,82,-5,x,100,i,0.95
CC(=O)Nc1nonc1NC(=O)CSc1nc2ccccc2o1,45,124,-5,-0.4,109,i,0.91

# Rows were taken by chance. About 1.3% of those tested had a hit in this group.
